High-throughput results deposited in PubChem by National Center for Advancing Translational Sciences (NCATS).
Rango-impB inh – qHTS Assay for Inhibitors of Rango (Ran-regulated importin-beta cargo) - Importin beta complex formation; actives 0.031% (n = 340,000); Potency, µM (top dose mostly 92.2 µM), inactives show top-dose inhibition of complex formation; AID 540263, 2011; Rango CFP/YFP FRET sensor + importin beta, 45 min; Importin subunit beta-1 (Homo sapiens), Q14974; active = rising FRET ratio curve, often small or poorly fitted; inconclusive = mostly compound fluorescence or quenching in the first reads; inactive = flat curves in all reads;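 further: potency means the concentration at half of the fitted maximal effect; 0% = DMSO wells and 100% = buffer wells lacking importin beta; nearly all actives have a fitted effect of over 15% in size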
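FRET biosensor Rango (snurportin 1 IBB between N-terminal EYFP and C-terminal Cerulean), 50 nM in PBS/1 mM DTT/0.02% Tween-20/0.1% BSA, preincubated 5 min RT with compound; 0.125 microM importin beta added, 45 min RT, CFP/YFP FRET ratio read.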
GLA inh pH 4.5 – qHTS Assay for Inhibitors of Human alpha-Galactosidase at pH 4.5; Alpha-galactosidase A (Homo sapiens), P06280; activity change, negative = inhibition, % at 105 µM; 230,000 tested, under 10 active; purified enzyme, 4-MU-alpha-Gal fluorescence, pH 4.5; inconclusive = small, poorly fitted or top-dose-only inhibition, or a rising curve; inactive = flat fitted curve, though single readings scatter; no compound was filed as active;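 further: 0% = full activity with enzyme and -100% = basal without enzyme; dose as in the result columns while the protocol names 77 µM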
Target sequence (P06280 whole entry, looked up): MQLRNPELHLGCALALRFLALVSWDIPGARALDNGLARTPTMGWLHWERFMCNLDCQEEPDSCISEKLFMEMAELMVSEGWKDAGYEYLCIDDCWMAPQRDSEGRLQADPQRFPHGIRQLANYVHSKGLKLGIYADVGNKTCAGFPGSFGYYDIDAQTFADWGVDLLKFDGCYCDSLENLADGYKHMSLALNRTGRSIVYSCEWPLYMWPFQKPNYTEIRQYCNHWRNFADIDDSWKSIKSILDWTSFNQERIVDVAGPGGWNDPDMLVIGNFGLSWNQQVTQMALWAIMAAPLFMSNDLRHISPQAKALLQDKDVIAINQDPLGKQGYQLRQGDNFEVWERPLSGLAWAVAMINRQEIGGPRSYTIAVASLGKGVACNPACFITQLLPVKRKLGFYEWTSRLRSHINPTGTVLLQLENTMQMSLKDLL
Rango release inh – qHTS Assay for Inhibitors of RanGTP induced Rango (Ran-regulated importin-beta cargo) - Importin beta complex dissociation. Potency, µM (series often up to 46.1 µM), for the others: at the top dose activity change, negative = inhibition. Snurportin-1 (Homo sapiens) + GTP-binding nuclear protein Ran (Homo sapiens) + Importin …. AID 540253, 2011. Biochemical FRET Rango-importin beta, RanGTP-induced dissociation. actives 0.071% (n = 340,000); active means falling FRET ratio curve, often poorly fitted, with flat reads before Ran was added; inconclusive means other falling curves, or compound fluorescence or quenching; inactive means flat or rising ratio curve;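 further: potency means the concentration at half of the fitted maximal effect; % of control where 0% means no effect; nearly all actives have a fitted effect of over 45% in size; -100% = wells without RanGTP and RCC1; the record marks most hits as doubtful in a second field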
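FRET read at 45 min, room temperature: inhibitors block the CFP/YFP signal rise when RanGTP (0.6 uM Ran, 2 mM GTP, 0.2 uM RCC1) frees Rango (0.1 uM) from importin beta (0.25 uM). Pre-read after 5 min compound exposure flags interference.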
miR-21 FLuc – qHTS Assay for Modulators of miRNAs and/orActivators of miR-21; HeLa miR-21 FLuc reporter, luciferase, 48 h; Potency, µM (highest dose often 38.3 µM), inactives show at the highest dose reporter change, positive = more light; 340,000 tested, under 10 active; active = well fitted rising curve with a large enough effect; inconclusive = small, poorly fitted or top-dose-only effect; inactive = no such curve, though single readings can be large or run the other way;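 further: % of control where 0% means no effect; miR-21 action dims this reporter so a rising signal means less miR-21 action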
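Luminescence from a firefly luciferase reporter carrying a miR-21 binding site downstream, stably expressed under a CMV promoter in HeLa cells that make miR-21 endogenously, reports miRNA modulation after 48 h compound exposure up to approximately 40uM final.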
The depositor's hits bear a star; ? = inconclusive; / = not tested or not shown; & = joins results of further samples; [ ] = dose if it differs, or a comment. These rows are one share of the data (hit frequency here may not be typical).

SMILES	Rango-impB inh	GLA inh pH 4.5	Rango release inh	miR-21 FLuc
C/C(=N\NC(=O)CSCc1ccc([N+](=O)[O-])cc1)c1ccccc1	-3.8%	-3.8[21.1 µM]	-4.4%	-6.1%
CCC(C(=O)N1CCC(C(N)=O)CC1)n1nc(C)n2c(cc3occc32)c1=O (stereo unspecified)	3.3%	/	-13.8%	-0.4%
Cc1[nH]n(-c2cccc(Cl)c2)c(=O)c1C=NCC(C)C	-0.6%	2.5	-3.7%	-54.4%
COc1ccc(CN2CCNC(=O)C2CC(=O)N(C)Cc2nccs2)c(OC)c1 (stereo unspecified)	2.0%	/	-2.5%	-2.2%
Clc1nc(NCc2ccco2)nc(N2CCCCC2)n1	5.5%	-14.8	0.6%	-2.1%
O=C(NCCc1ccc(Cl)cc1)/C(=C/c1cccnc1)NC(=O)c1ccccc1	-3.4%	1.7	2.7%	-1.4%
CN(C(=O)c1ccccc1Cl)c1ccccc1C(=O)NCc1ccccc1	-0.8%	/	18.0%	4.8%
Cc1ccccc1NCc1ccccc1O	0.0%	3.4	1.9%	-2.4%
CCOC(=O)CC(/C(C)=N\O)c1ccccc1 (stereo unspecified)	5.2%	-3.2	0.3%	-3.3%
Cc1ccc(/C=N/n2c(C)nnc2C)cc1	-3.3%	-10.6	3.1%	-3.2%
O=C(CSc1nnc(-c2cnccn2)n1Cc1ccco1)Nc1ccc(Br)cc1	-0.1%	7.2	14.0%	12.0%
Cc1cccc(N2CCN(C(=O)C3CCN(S(=O)(=O)c4cccc5cccnc45)CC3)CC2C)c1 (stereo unspecified)	3.1%	-5.5	18.9%	6.7%
COCCn1c(=O)[nH]c2cc(C(=O)Nc3cc(OC)c(OC)c(OC)c3)ccc2c1=O	-3.1%	/	8.2%	15.8%
CC(=O)c1c(C)nn(CC(O)COc2ccc3ccccc3c2)c1C (stereo unspecified)	0.0%	1.1	-4.1%	4.0%
COc1ccc(NC(=O)CC2CCCC2)cc1S(=O)(=O)N1CCCCC1	-2.6%	-2.9	2.6%	7.8%
CCCCn1c(/N=C/c2ccc(N(C)C)cc2)nc2ccccc21	?	2.5	?	-5.7%
CC(=O)N1CCn2c3ccc(C)cc3c3cccc1c32	-0.5%	-3.0	4.3%	-61.8%
CCOC(=O)C(C)/C(C)=N\Nc1ccc([N+](=O)[O-])cc1[N+](=O)[O-] (stereo unspecified)	0.1%	-5.2[21.1 µM]	28.1%	2.0%
O=C(Nc1ccccc1Oc1ccccc1)C1CC1	0.1%	18.6	11.3%	-6.3%
CCCC1CC(=O)NC1(C(=O)OCC)C(=O)OCC (stereo unspecified)	-2.7%	/	0.5%	/
O=c1c2ccccc2[nH]c(=S)n1Cc1ccc2c(c1)OCO2	-2.0%	-1.1	-11.4%	3.1%
Cc1nc(CC(=O)Nc2nc(C(C)(C)C)cs2)cs1	0.4%	-4.1	25.2%	-24.5%
C[C@@H]1CCC[C@]2(O[C@H](CCO)C[C@@H](O)[C@@H]2O)O1	2.8%	/	-2.6%	/
CC(NC(=O)C1CCN(c2nnc(-n3cccc3)s2)CC1)C12CC3CC(CC(C3)C1)C2 (stereo unspecified)	-0.2%	-2.7	5.5%	1.6%
Cc1cc(C)nc(-n2nc(C)c(C3(O)C(=O)Nc4ccc(F)cc43)c2N)n1 (stereo unspecified)	0.3%	2.3	-6.0%	-2.7%
Carrying on:
SMILES	Rango-impB inh	GLA inh pH 4.5	Rango release inh	miR-21 FLuc
Cc1cccc(NS(=O)(=O)c2ccc(NC(=O)N3CCCCC3)cc2)c1	-0.4%	/	-0.1%	13.4%
C1=CCN(Cc2ccccc2)C1	?	/	0.7%	-2.2%
COc1ccc(CCNC(=O)c2ccccc2NC(=O)C2=C(C)OCCS2)cc1OC	-1.1%	/	16.5%	9.2%
CCO/C=C1/C(=O)N(c2ccccc2OC)C(=O)c2ccccc21	?	3.6	?	-0.5%
COCCNC(=O)c1onc(CSc2cccc(C)c2)c1C(=O)O	4.4%	11.7	4.3%	-0.4%
COc1ccc(Cl)cc1NC(=O)Nc1cnccn1	3.6%	/	-0.5%	-9.9%
CCCC(=O)Nc1ccc(-c2nc3cc(C)ccc3o2)cc1	0.1%	0.9	0.0%	-20.8%
O=C(/C=C/c1ccc(Br)cc1)NC1CCCCCC1	?	-7.4	2.1%	-28.1%
COc1ccc(CNC(=O)C(C)n2nc(C)n3c(cc4occc43)c2=O)cc1 (stereo unspecified)	1.2%	/	-17.4%	-4.8%
Cc1ccc(C)c(OCCCN2CCNCC2)c1	3.9%	/	1.1%	-2.9%
CC(=O)NCC1CCCN(Cc2cn(-c3ccccc3F)nc2-c2cc(C)sc2C)C1 (stereo unspecified)	-0.9%	-5.3	-13.8%	3.1%
Nc1ccccc1SCc1ccccc1Cl	5.5%	-1.8	0.5%	-16.2%
N/C(=N\OC(=O)c1ccc2c(c1)OCO2)c1ccc(Br)cc1	-1.4%	7.0	-0.6%	-31.1%
C=CC(=O)Nc1cccc(Oc2ncnc3[nH]cc(-c4cnc5ccccc5c4)c23)c1	0.1%	/	6.0%	/
Cc1cc(C(=O)N2CCN(c3ccc(F)cc3)CC2)on1	3.9%	/	1.7%	-5.5%
Cc1ccccc1C(=O)N1CCC(C(=O)OCc2ccccn2)CC1	0.3%	/	0.8%	/
CCOc1ccccc1N(CC(=O)Nc1ccc(S(=O)(=O)N2CCOCC2)cc1)S(=O)(=O)c1ccccc1	-3.4%	-2.6	15.6%	-0.3%
Cc1ccc(CNS(=O)(=O)c2ccc3c(c2)NC(=O)CO3)cc1	2.7%	/	0.1%	-0.5%
O=c1c(/C=N/OCc2ccc(Cl)cc2Cl)c[nH]n1-c1cccc(Cl)n1	-1.3%	-6.2	-18.4%	-0.4%
O=c1[nH]c2ccc(S(=O)(=O)Nc3ccc(Br)cc3)cc2[nH]1	6.7%	/	-14.2%	1.6%
CCOc1cc(C2CC(=O)c3c(ccc4ccccc34)N2)ccc1O (stereo unspecified)	0.2%	-0.1	1.1%	-8.3%
Cc1ccc(C)c(N2CCN(C(=O)C(Cc3ccccc3)n3cccc3)CC2)c1 (stereo unspecified)	-2.8%	-3.1	7.9%	13.2%
Cc1cc(C(=O)NCCCN2CCCC2=O)no1	?	0.6	20.3%	-7.1%
Cc1ccc2cc(CN(CC3CCCO3)C(=S)Nc3ccccc3)c(=O)[nH]c2c1C (stereo unspecified)	-1.4%	0.5	-6.6%	?
Cc1ccc(C)c(Nc2ccc(C(=O)NCCc3ccccc3)cn2)c1	-0.2%	-24.3	-15.4%	-30.2%

Part of the list above, comma-delimited.
compound,Rango-impB inh,GLA inh pH 4.5,Rango release inh,miR-21 FLuc
Cc1ccc(CNS(=O)(=O)c2ccc3c(c2)NC(=O)CO3)cc1,2.7%,/,0.1%,-0.5%
O=c1c(/C=N/OCc2ccc(Cl)cc2Cl)c[nH]n1-c1cccc(Cl)n1,-1.3%,-6.2,-18.4%,-0.4%

Carrying on:
SMILES	Rango-impB inh	GLA inh pH 4.5	Rango release inh	miR-21 FLuc
CC1CC(C)CN(S(=O)(=O)c2ccc3c(c2)C(C)(C)C(=O)N3C)C1 (stereo unspecified)	-0.1%	/	-15.7%	-1.2%
CCC1CCCCN1Cc1nc2c(c(=O)n(C)c(=O)n2C)n1CCC(C)C (stereo unspecified)	1.2%	8.5	-7.6%	-4.6%
O=C(Nc1cccc(NC(=O)c2ccc(Br)o2)n1)c1ccc(Br)o1	-0.9%	-4.1	-8.2%	-6.0%
O=C(Nc1ccc(Oc2ccccc2)cc1)c1ccco1	-1.0%	3.8	-10.1%	-45.2%
O=C(CN1CCOCC1)N/N=C/C(Br)=C\c1ccccc1	1.5%	-2.2	15.1%	-16.6%
COC1CCCCC1Nc1ccc(C)c(C)c1 (stereo unspecified)	-4.0%	/	10.4%	-2.0%
CN(C)CCN(C(=O)c1ccc2ccccc2c1)c1nc2ccc(F)cc2s1	-0.4%	/	-18.7%	-25.5%
Cc1cccc(C(P(=O)(c2ccccc2)c2ccccc2)P(=O)(c2ccccc2)c2ccccc2)n1	-0.1%	-6.4	-0.6%	-7.9%
Cc1ccc(C2c3[nH]c4ccccc4c3C[C@H]3C(=O)N(c4ccccc4C(=O)NCCN4CCOCC4)C(=O)N23)cc1 (stereo partly specified)	-1.5%	/	-8.6%	10.4%
COc1c(/C=N/NC(=O)[C@H]2C[C@@H]2c2ccccc2)c(CCN(C)C(C)=O)cc2c1OCO2	0.7%	1.0	1.3%	-1.5%
O=C1CCC(=O)N1OCCCOc1ccc(Br)cc1Cl	0.8%	-5.5	-2.5%	-1.0%
O=C(CN1C(=O)C2CC=CCC2C1=O)Nc1nc2ccc(F)cc2s1 (stereo unspecified)	-0.1%	-1.4	-5.9%	-2.4%
CCc1ccc(CN(C)C(=O)c2cc(=O)c3ccccc3o2)cc1	-0.7%	/	11.3%	2.7%
CCC1(c2ccccc2)NC(=S)N(c2ccc(C)c(C)c2)N1 (stereo unspecified)	-5.3%	-0.4	-8.1%	-32.0%
O=C(NCCc1ccccc1)c1cnc2n(c1=O)CCS2	2.3%	3.1	23.1%	-59.0%
COc1ccc(OC)c(N(CC(=O)Nc2cccc(C(F)(F)F)c2)S(C)(=O)=O)c1	2.5%	0.4	-25.1%	-8.1%
CCCCOC(=O)c1ccc(NC(=O)C2CCCO2)cc1 (stereo unspecified)	5.1%	-6.9	0.0%	-35.9%
Cc1cc(Br)ccc1NC(=O)CN(C)C(=O)C1CSC2(C)CCC(=O)N12 (stereo unspecified)	-2.4%	/	14.1%	/
CCOc1ccccc1NC(=S)NNS(=O)(=O)c1c(C)cc(C)cc1C	-3.6%	1.0	-5.1%	-4.5%
CCOC(=O)N1CCN(c2c(N3CCN(C(=O)OCC)CC3)c(=O)c2=O)CC1	0.2%	0.4	38.3%	1.6%
CCCc1cc(=O)[nH]c(SCC(=O)c2cc(C)n(-c3cc(C)on3)c2C)n1	-3.4%	-7.2	-3.5%	-5.9%
CCCCc1ccc(NC(=S)NCCO)cc1	0.3%	0.3	16.5%	0.6%
CC(=O)Nc1ccc(NC(=O)N2CCCCC2)cc1	?	-5.4	-9.5%	-15.8%
O=C(NNC(=O)c1ccc(F)cc1)C(=O)N1CCCCC1	14.0%	1.5	19.3%	-8.1%
Cc1occc1C(=O)N/N=C/c1cnn(C)c1C	3.4%	-2.8	-4.8%	-63.5%

Reprinted from the part before: 3 compounds, followed by the next part.
SMILES	Rango-impB inh	GLA inh pH 4.5	Rango release inh	miR-21 FLuc
CC(=O)Nc1ccc(NC(=O)N2CCCCC2)cc1	?	-5.4	-9.5%	-15.8%
O=C(NNC(=O)c1ccc(F)cc1)C(=O)N1CCCCC1	14.0%	1.5	19.3%	-8.1%
Cc1occc1C(=O)N/N=C/c1cnn(C)c1C	3.4%	-2.8	-4.8%	-63.5%
CCOc1ccc(CNC(=O)CCCn2nc(CC)n3c(cc4occc43)c2=O)cc1	-0.7%	/	3.1%	-18.3%
COc1cc(N2C(=O)CSC2=S)cc(OC)c1OC	2.9%	/	-1.0%	1.6%
CC1(C)N=C(N)NC(Nc2cccc(Br)c2)=N1	0.1%	-2.3	30.6%	11.1%
CCOc1ccc(NC(=S)Nc2ccc(OCc3ccccc3)cc2)cc1	-0.1%	1.8	15.5%	-11.6%
N#Cc1ccc(NC(=O)c2cc(=O)c3ccccc3o2)cc1	-1.5%	1.1	12.4%	0.4%
CCC(=O)c1ccc(OC(=O)c2cnccn2)cc1	0.9%	2.5	-8.1%	-0.1%
CC(=O)C1=C(O)C(=O)N(c2cc(C(C)(C)C)on2)C1c1ccc(Br)cc1 (stereo unspecified)	-1.7%	4.9	0.1%	-10.5%
CC(=O)OCCNC(=O)c1cccnc1	-0.2%	7.0&0.2	-1.8%	-0.5%
CCOC(=O)c1cc(S(=O)(=O)N2CCC(C)CC2)cn1C	-0.2%	/	0.3%	-0.2%
